PINK1 modulator – A Quantitative High throughput Screen to Identify Chemical Modulators of PINK1 Expression; PINK1 immunofluorescence, high-content cytometry, 24 h; Potency, µM (titrated, usually from 76.6 µM), inactives show top-dose activation (PINK1 increase), most hits filed as activators; 410,000 compounds, 0.2% hits; active = well fitted activation curve with a large enough effect; inconclusive = small, poorly fitted or top-dose-only effect; inactive = flat fitted curve, though single readings scatter; cell line not stated here;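 note: % of control where 0% means no effect; nearly all actives have a fitted effect of over 65% in size; a mitochondrial uncoupler was the plate control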
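Cells are seeded, rested 12 hours, then given compound at five concentrations or DMSO for 24 hours. After fixation, blocking and antibody staining, PINK1 amount and mitochondrial localization are scored; CCCP serves as control.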
ClpP mod – qHTS Assay for Activators of ClpP; ATP-dependent Clp protease proteolytic subunit (Bacillus subtilis (strain 168)), P80244; purified B. subtilis ClpP, FRET peptide cleavage, 20 min; Potency, µM (top dose mostly 57.5 µM), without a hit: at the top dose activity change, negative = active; 340,000 compounds, 1.9% hits; active = well fitted falling curve with a large enough effect; inconclusive = small, poorly fitted or top-dose-only effect; inactive = no such curve, though single readings can be large or run the other way; note: the source files actives as falling curves though it sought activators and does not explain the sign; nearly all actives have a fitted effect of over 65% in size; many hits overshoot -100%
Target sequence (P80244 whole entry, looked up): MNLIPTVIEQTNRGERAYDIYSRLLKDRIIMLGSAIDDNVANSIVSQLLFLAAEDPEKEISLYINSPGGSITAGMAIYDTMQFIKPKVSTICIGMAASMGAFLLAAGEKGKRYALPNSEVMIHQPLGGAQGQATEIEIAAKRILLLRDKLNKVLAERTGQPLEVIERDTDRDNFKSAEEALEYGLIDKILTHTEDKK
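ClpP 10 microg/mL final, pH 8 Tris/KCl buffer with BSA, glycerol, Tween-20; compound pinned in; FRET-FV substrate; RT 20 min; Ex320/Em430; ΔFRET vs ADEP 5.8 microM, DMSO, no enzyme.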
The depositor's hits bear a star; ? = inconclusive. Potency is the fitted concentration of half-maximal effect. An excerpt; the hit share may differ from the screen's.

No.	mol	PINK1 modulator	ClpP mod
1	O=C(CSc1nc2c([nH]c3ccccc32)c(=O)n1-c1cccc(Cl)c1)c1ccccc1	20%	-1.2%
2	CCOc1ccc(NC(=O)C(C)Sc2nc3ncccc3o2)cc1 (stereo not given)	-0.6%	1.1%
3	COc1ccc(N2CC(NC(=O)CCCc3ccccc3)CC2=O)cc1 (stereo not given)	0.9%	1.3%
4	Cc1ccccc1Nc1c(-c2ccc(Cl)s2)nc2ccccn12	2.3%	-30%
5	Cc1ccc(S(=O)(=O)c2nc(-c3cccc(C)c3)oc2N2CCCCC2)cc1	1.4%	-8.4%
6	O=C(CN1c2ccccc2S(=O)(=O)c2ccccc21)Nc1ccccc1Cl	2.4%	?
7	CCc1ccc(S(=O)(=O)Nc2ccc3c(c2)sc(=O)n3C)cc1	0.7%	-0.6%
8	CCC(=O)N1CCc2cc(Br)cc(S(=O)(=O)CCC(=O)NCCc3ccc(OC)c(OC)c3)c21	-0.4%	0.3%
9	c1nc(SSc2ncc3n[nH]nc3n2)nc2n[nH]nc12	0.6%	-0.9%
10	CCc1ccc(CNC(=O)c2cc3n(n2)CCCN(Cc2ccccc2)C3=O)cc1	2.0%	0.9%
11	CC(C)C[C@@H](CN1CCCC1CN1C(=S)NC[C@@H]1Cc1ccccc1)N1C[C@H](Cc2ccccc2)N(CC2CCCCC2)C1=S (stereo not given in full)	4.8%	1.2%
12	COc1ccc(C(=O)c2sc3nc(-c4ccc(F)cc4)ccc3c2N)cc1	12%	27%
13	CCN(C(=O)c1cn(-c2ccc(OC)cc2)c(=O)c2ccccc12)c1cccc(Cl)c1	-1.5%	-18%
14	CN(C)c1ccc(CN2CCc3nc(N4CCN(c5ccccn5)CC4)ncc3C2)cc1	2.1%	6.4%
15	Cc1cccc2c1-c1sc(C(=O)N3CCN(c4ccc(F)cc4)CC3)cc1CO2	1.5%	?
16	CCc1cccc(C)c1NC(=O)C(CC)n1nc(C)c2c(C)n(-c3ccccc3)nc2c1=O (stereo not given)	0.5%	?
17	COc1ccc(C(CC(=O)Nc2ccc(C(C)=O)cc2)N2Cc3ccccc3C2=O)cc1 (stereo not given)	0.6%	-1.1%
18	Cc1ccc2[nH]c(=O)c(CN(CCO)Cc3nnnn3Cc3ccccc3)cc2c1	1.2%	-29%
19	CCCCN(C)CC(O)Cn1cc(/C=C/C(=O)c2ccc(Br)cc2)c2ccccc21 (stereo not given)	-5.8%	-0.2%
20	CCC1CN(C(=O)N2CCC(C(=O)Nc3cc(C)ccc3C)CC2)c2ccccc2O1 (stereo not given)	-0.5%	-2.7%
21	COc1ccc(-c2cn3nc(N4CCCC(C(=O)Nc5cccc(OC)c5)C4)sc3n2)cc1 (stereo not given)	0.1%	-1.1%
22	CCN(c1cccc(C)c1)S(=O)(=O)c1nnc(NC(=O)C2CCCCC2)s1	-0.2%	0.2%
23	Brc1ccccc1-n1ncc2c1ncn1nc(Cc3ccccc3)nc21	-0.4%	0.5%
24	CCc1ccc(CN2CCc3nc(Nc4ccc5c(c4)OCCO5)ncc3C2)cc1	5.0%	-4.3%
25	CCCOc1ccc(-c2nn(-c3ccccc3)cc2C2NC(=O)NC(C)=C2C(=O)OC)cc1C (stereo not given)	2.5%	-12%

No.	mol	PINK1 modulator	ClpP mod
26	Cc1cccc(CC(=O)Nc2cccc(-c3cn4cccnc4n3)c2)c1	-0.2%	3.7%
27	C=CCC(CC=C)(CNC(=O)C(=O)Nc1ccc(C(=O)OCC)cc1)c1ccccc1	0.2%	-1.1%
28	CCCn1ccc2c(OCC(=O)NCc3ccc(C)cc3)cccc2c1=O	0.6%	-21%
29	CCCCNC(=O)c1nn(C)c2c1CSc1ccccc1-2	2.5%	0.1%
30	COc1ccc(C2c3c(n(C)c4ccccc34)C(=O)N2CC(=O)Nc2c(C)cc(C)cc2C)cc1 (stereo not given)	0.4%	-2.8%
31	COc1ccc(C(=O)NCCc2csc(-c3ccc(Cl)cc3)n2)c(OC)c1	0.1%	-19%
32	CCOC(=O)c1cc(S(=O)(=O)N2CCN(c3cc(Cl)ccc3C)CC2)[nH]n1	3.1%	-12%
33	CCOc1ccc(OCC)c(NC(=O)CCc2nc3cccnc3n2-c2ccccc2)c1	1.2%	1.1%
34	COc1ccc(C(=O)Nc2nonc2-c2ccc(OC)c(OC)c2)cc1Cl	7.5%	34%
35	COc1ccc(S(=O)(=O)N2CCN(c3ccc(Cl)c(Cl)c3)CC2)c2ccccc12	0.2%	-15%
36	Cc1ccccc1C(=O)Nc1ccc2nc(Nc3cccc(C(F)(F)F)c3)cc(C)c2c1	1.4%	4.1%
37	COc1ccccc1CNc1nc(-c2ccco2)nn1C(=O)c1ccccc1[N+](=O)[O-]	-0.5%	-1.6%
38	COc1ccc2c(CNCc3cccs3)c(C(=O)O)n(Cc3ccc(F)cc3Cl)c2c1	1.4%	-5.9%
39	COc1ccc(-c2cc(NCc3ccc(C)cc3)n3cnnc3n2)cc1	1.2%	-19%
40	O=C(c1ccc2c(c1)OCO2)c1cn(Cc2ccc(Cl)cc2)c2ccc(F)cc2c1=O	-0.4%	-6.0%
41	CCOc1ccc(S(=O)(=O)N2CCC(N3CCN(Cc4ccc(F)cc4)C(=O)C3=O)CC2)cc1	2.7%	1.4%
42	COc1ccc(CCNC(=O)Cn2ncc3c(=O)oc4ccccc4c32)c(OC)c1	1.0%	-0.6%
43	Cc1cccc(N(CC(=O)Nc2ccccc2C(F)(F)F)S(=O)(=O)c2ccccc2)c1C	1.1%	-0.8%
44	Cc1cccc(Cc2c(C)nc3nc(SCc4ccccc4Cl)nn3c2C)c1	0.3%	-7.5%
45	Cc1cc(C)cc(NC(=O)C2CCCN(c3cnccn3)C2)c1 (stereo not given)	-0.8%	-13%
46	CCOC(=O)c1c(C)oc2nc(C)nc(NCc3ccc(OC)cc3)c12	2.7%	0.8%
47	COc1cccc(Cn2c(SCc3ccc(C(=O)N4CCCCC4)cc3)nc3ccncc32)c1	0.9%	-4.2%
48	CCC(C(=O)N1CCN(c2cc(Cl)ccc2C)CC1)n1nc(C)c2sc3ccccc3c2c1=O (stereo not given)	0.0%	-1.1%
49	CCCNC(=O)CN1C(=O)c2cccnc2Sc2ccccc21	0.4%	-4.1%
50	Cc1ccc(Cl)cc1N1CCN(S(=O)(=O)c2cc(Br)cc3c2N(C(=O)C2CC2)CC3)CC1	0.2%	-0.5%

From compound 48 to 50, copied from above:
No.	mol	PINK1 modulator	ClpP mod
48	CCC(C(=O)N1CCN(c2cc(Cl)ccc2C)CC1)n1nc(C)c2sc3ccccc3c2c1=O (stereo not given)	0.0%	-1.1%
49	CCCNC(=O)CN1C(=O)c2cccnc2Sc2ccccc21	0.4%	-4.1%
50	Cc1ccc(Cl)cc1N1CCN(S(=O)(=O)c2cc(Br)cc3c2N(C(=O)C2CC2)CC3)CC1	0.2%	-0.5%

More entries follow.
No.	mol	PINK1 modulator	ClpP mod
51	CCOc1ccc(-n2c(=O)c3c4c(sc3n(Cc3cccc(C)c3)c2=O)CCCC4)cc1	1.7%	0.2%
52	CCCCOc1ccc(CC(N)=O)cc1	1.7%	0.3%
53	CCCCn1nnnc1C(c1ccccc1)N1CCN(Cc2c(F)cccc2Cl)CC1 (stereo not given)	-1.1%	-1.7%
54	Cc1cccc(C(=O)Nc2sc3c(c2C(=O)NCc2ccco2)CCCC3)c1	0.4%	-8.0%
55	CCc1nn(CC(=O)NCCCOC)c(=O)c2cc3occc3n12	0.2%	-4.7%
56	Cc1ccc(C(=O)NC2(C(F)(F)F)N=C(c3ccccc3)N(Cc3ccccc3)C2=O)cc1 (stereo not given)	3.6%	1.5%
57	COc1ccc2sc(N(Cc3cccnc3)C(=O)COc3ccccc3)nc2c1	0.7%	-6.0%
58	Cc1cccc(C)c1OCc1nc2c3c(-c4ccccc4)c(-c4ccccc4)oc3ncn2n1	0.1%	-13%
59	CCc1cc(C(=O)Nc2c(C)nn(Cc3ccccc3Cl)c2C)no1	12%	0.4%
60	CCOc1ccc(N(Cc2ccccc2)C(=O)c2nc(S(C)(=O)=O)ncc2Cl)cc1	-0.6%	0.1%
61	COc1ccc(-c2n[nH]c3c2C(c2ccc(Cl)cc2Cl)NC3=O)cc1 (stereo not given)	0.6%	-11%
62	CCOc1cc(C(=O)N2CCc3c([nH]c4ccccc34)C2c2ccccc2)cc(OCC)c1OCC (stereo not given)	-0.4%	-4.4%
63	CC(CCc1ccccc1)NC(=O)Cn1ncc2c3ccccc3n(Cc3cccc(Cl)c3)c2c1=O (stereo not given)	2.5%	-4.9%
64	CCNc1c(NC(=O)c2cc(OCC)c(OCC)c(OCC)c2)c(=O)oc2ccccc12	-1.2%	5.3%
65	O=C(CSc1cn(CC(=O)N2CCOCC2)c2ccccc12)Nc1ccccc1F	1.1%	-1.6%
66	COc1ccc(N2C(=O)CSC23C(=O)N(Cc2cccc(F)c2)c2ccccc23)cc1Cl (stereo not given)	-1.8%	-12%
67	COc1ccc(CCN2C(=O)COc3ccccc3C2C(=O)Nc2ccc3c(c2)OCCO3)cc1OC (stereo not given)	?	-1.1%
68	CCOc1ccc(-c2nnc(SCC(=O)NCc3ccc(C)cc3)nc2-c2ccc(OCC)cc2)cc1	0.6%	1.4%
69	CC(C)=CCC[C@H](C)C[C@@H]1Cc2[nH][nH]c(=O)c2[C@H](c2ccc(Cl)cc2)O1	13%	-1.1%
70	COc1cccc(-c2nc3nc(C)cc(C)n3c2NC2CCCCC2)c1	-0.8%	-3.3%
71	CCOC(=O)c1[nH]c(C)c(CCC(=O)NCc2ccc(C)cc2)c1C	-0.8%	-0.3%
72	O=C(Nc1ccc2c(c1)N(C1CCCC1)C(=O)c1ccccc1S2)c1ccccc1	2.5%	-23%
73	Cc1nn2c3c(cnc2c1-c1ccc(Cl)cc1)C(=O)CC(c1ccc(C(C)C)cc1)C3 (stereo not given)	-0.2%	2.1%
74	COC(=O)[C@]12CCCCC=C1N(Cc1ccc(Cl)cc1Cl)C(=O)[C@H](CC(=O)NCc1ccc(C)o1)C2	0.8%	-1.5%
75	Cc1cccc(C(=O)Nc2cc3c(cc2N2CCOCC2)n(C)c(=O)n3C)c1	-1.6%	-3.5%

A different layout for 5 compounds above.
56: Cc1ccc(C(=O)NC2(C(F)(F)F)N=C(c3ccccc3)N(Cc3ccccc3)C2=O)cc1 (stereo not given)
64: CCNc1c(NC(=O)c2cc(OCC)c(OCC)c(OCC)c2)c(=O)oc2ccccc12
67: COc1ccc(CCN2C(=O)COc3ccccc3C2C(=O)Nc2ccc3c(c2)OCCO3)cc1OC (stereo not given)
52: CCCCOc1ccc(CC(N)=O)cc1
57: COc1ccc2sc(N(Cc3cccnc3)C(=O)COc3ccccc3)nc2c1

| Assay by compound | 56 | 64 | 67 | 52 | 57 |
| --- | --- | --- | --- | --- | --- |
| PINK1 modulator | 3.6% | -1.2% | ? | 1.7% | 0.7% |
| ClpP mod | 1.5% | 5.3% | -1.1% | 0.3% | -6.0% |

(further entries)
No.	mol	PINK1 modulator	ClpP mod
76	COc1ccc(Nc2oc(-c3ccc(COc4ccc(OC)cc4)o3)nc2C#N)cc1	4.5%	16%
77	COc1cc2c(NC3CCN(C)CC3)nc(N3CCN(C)CC3)nc2cc1OCCCN(C)C	0.3%	4.3%
78	O=C(c1ccc2c(c1)OCCO2)N(Cc1cccnc1)c1nc2ccc(Cl)cc2s1	1.2%	-5.6%
79	COc1cccc(CNC(=O)c2cc(S(=O)(=O)N3CCCCCC3)cn2C)c1	1.5%	-0.6%
80	COc1cccc(Cn2c(C)c(CNC3CCCCC3)c(C(=O)O)c2C)c1	2.8%	0.8%
81	O=C(COC(=O)c1ccccc1OCCOc1ccccc1)Nc1cccc(Br)c1	-0.6%	0.0%
82	CC1CCN(S(=O)(=O)c2ccc3c(c2)CCN3C(=O)Nc2ccccc2Br)CC1	0.8%	-1.8%
83	Oc1c(C(c2ccccc2)N2CCOCC2)sc2nc(-c3ccco3)nn12 (stereo not given)	0.8%	-0.4%
84	CCOc1ccc(OC(=O)c2cn(-c3ccc(C)cc3)c(=O)c3ccccc23)cc1	0.0%	-1.6%
85	O=C1OC(C(=O)Nc2cccc(Br)c2)Cc2ccccc21 (stereo not given)	0.2%	1.6%
86	CC1Cc2ccccc2N1S(=O)(=O)c1nnc(NC(=O)c2ccccc2Br)s1 (stereo not given)	0.0%	-0.2%
87	CCOC(=O)N1CCN(Cc2nc3cc(NC(=O)CC)ccc3n2C(C)C)CC1	4.5%	-5.9%
88	CCOC(=O)c1cc(-c2ccc(OC)c(S(=O)(=O)Nc3ccc(OC)cc3OC)c2)on1	1.1%	-2.4%
89	CC1CCc2c(sc(NC(=O)C3c4ccccc4Oc4ccccc43)c2C(=O)OC(C)C)C1 (stereo not given)	4.7%	-1.5%
90	CCOC(=O)c1cnc2cc(C(F)(F)F)ccc2c1N1CCN(c2cccc(Cl)c2)CC1	6.2%	-0.8%
91	CN(C)c1ccc(/C=C/c2nccc3ccccc23)cc1	0.3%	1.5%
92	Cn1c(=O)c2c(-c3ccccc3)n3c4ccccc4nc(-c4ccccc4)c3c2n(C)c1=O	2.2%	?
93	Cc1cccc(Nc2nnc(-c3ccc(C)c(S(=O)(=O)NCC4CCCO4)c3)c3ccccc23)c1 (stereo not given)	0.5%	-11%
94	COCCn1c(=O)[nH]c2cc(C(=O)NCc3ccccc3Cl)ccc2c1=O	-0.2%	?

Compound activity deposited in PubChem by National Center for Advancing Translational Sciences (NCATS).
